NPYLR7 ag: mosquito NPYLR7 agonism; HEK293T NPYLR7/Galpha15, GCaMP6s calcium fluorescence; 270,000 tested, 0.15% active; AID 1259423; activation, % at 10 µM; in the data active = activation above about 40%;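 note: 0% = vehicle and 100% = reference agonist at the receptor; some compounds past the cut are filed as inactive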
NPYLR7 ag max-min: second read-out of NPYLR7 ag, no call of its own (marks repeat the call); activation, %; measured here: Max-Min RFU normalised activation; some inactives read as strong as hits;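 span of the calcium signal over five minutes; 0% = vehicle and 100% = native peptide agonist; compound fluorescence can raise it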
An asterisk follows results filed as active; & = joins results of further samples.

Molecule	NPYLR7 ag	NPYLR7 ag max-min
CC(C)(C)c1nn(-c2ccc(F)cc2)c2c1C(c1ccc3c(c1)OCO3)SCC(=O)N2CC(=O)NCC1CCCO1 (stereo not given)	13	0
Cc1c(CNC(=O)C(=O)c2c(-c3ccccc3)cc3ccccn23)cnn1C	2	-6
CCN(C(=O)c1ccc(F)c(C)c1)C(C)CO (stereo not given)	0	6
Cc1nccn1-c1cc(N2CCN(C(=O)C(c3ccccc3)c3ccccc3)CC2)ncn1	-20	-25
O=C(Cc1ccccc1)N1CCn2c(nnc2C(=O)N2CCOCC2)C1	7	4
FC(F)(F)c1nc(N2CCCC2)ncc1-c1nnnn1-c1ccc(Cl)cc1	-5	-6
O=C(NCc1cccs1)c1ccc(N2CC3CC(C2)c2cccc(=O)n2C3)c(NC(=O)c2cc3ccccc3oc2=O)c1 (stereo not given)	-7	-2
CCc1cccc(NC(=O)N(Cc2ccc(OS(=O)(=O)c3ccc(F)cc3)cc2)C(C)CC)c1 (stereo not given)	14	20
CCN(CC)C(=O)C1CCCN(C(=O)CC(C)(C)CC(=O)O)C1 (stereo not given)	1	-3
Cc1ccc(CC(C)NC(=O)c2ccc(-c3nn[nH]n3)cc2)s1 (stereo not given)	0	73
Cn1cnnc1SCC(=O)Nc1sc2c(c1C(N)=O)CCCC2	4	8
C=CCC(CC(=O)O)C(=O)Nc1ccc(CP(=O)(OCC)OCC)cc1 (stereo not given)	-7	-17
CN(C)S(=O)(=O)N1CCc2c(nc(-c3ccncc3)[nH]c2=O)C1	20	13
CCOC(=O)C1=C(C)NC(C)=C(C(=O)OCC)C1C(=O)O	5&-1	1&-4
COc1ccccc1OCCN1CCC(C(=O)NC(c2ccccc2)c2ncccc2C)CC1 (stereo not given)	5	0
COc1ccc(CN(C)C)cc1NC(=O)c1ccn(-c2ccc(F)cc2)n1	8	4
Cc1cccc(C)c1NCC(=O)NCc1ccccc1CO	1	-2
CC(C)c1noc(C2CCCN(Cc3cc4ccccc4[nH]c3=O)C2)n1 (stereo not given)	5	4
O=C1OC(c2ccc(OC(F)F)cc2)=NC1=Cc1ccc2c(c1)OCCO2	2	7
CCc1nc(-c2ccccc2)nc(N2CCN(C(C)=O)CC2)c1Cc1cc(C)ccc1C	7	12
Cn1nc(-c2ccccc2)c(CN(CC(O)COc2ccccc2)C2CC2)c1Oc1cccc(F)c1 (stereo not given)	8	4
CCc1nc2c(OCCC3CCCCC3)cccn2c1N(C)C(=O)c1cccs1	13	1
COc1cc(OC)cc(C(=O)N(CC(=O)N(CCc2c[nH]c3ccccc23)Cc2ccc(F)cc2)C2CC2)c1	15	11
CCc1nnc(-c2cc3ccccc3n2Cc2ccccc2C)o1	-2	-3
COc1ccccc1CN1CN=C(NS(C)(=O)=O)NC1	-8	-15
O=C(NCCOc1ccccc1)c1n[nH]c(C2CC2)c1Br	2	9
CCOC(=O)OC(C)OC(=O)[C@@H]1N2C(=O)[C@@H](NC(=O)[C@H](N)c3ccccc3)[C@H]2SC1(C)C (stereo not given in full)	-5	-7
O=C(C1=COc2ccc(Cl)cc2C1)N1CCN(c2nc3nccc(-c4ccc(N5CCOCC5)cc4)n3n2)CC1	5	1
CCSCCNC(=O)c1sc2ccc(OC)cc2c1Cl	-7	-10
O=C1CC(c2ccc(-n3ccnc3)cc2)c2c(nc3ccccn23)CN1 (stereo not given)	7	2
CN1CCN(c2cc(C(C)(C)C)nc(SCc3cccc(C(=O)O)c3)n2)CC1	5	9
Nc1c(S(=O)(=O)c2ccc(Br)cc2)c2nc3ccccc3nc2n1Cc1ccco1	4	2
CCN(Cc1ccc2nonc2c1)CC1CCCN(CCc2cccc(F)c2)C1 (stereo not given)	6	9
CCNC(=S)N1CCc2cc(OC)c(OC)cc2C1CNC(=O)c1ccc(C)cc1 (stereo not given)	4	12
CCC(=O)Nc1cccc(OCC(=O)N[C@@H]2C[C@H]3CC[C@@H]2C3)c1	10	8
CN(Cc1cnn(-c2ccc(F)cc2)c1)Cc1nc(CC2CC2)no1	1	-4
O=C(c1ccco1)N(Cc1cccnc1)c1nc2cc3c(cc2s1)OCO3	-9	-1
Cc1cc(C)n2nc(CC(=O)N(Cc3ccc(F)cc3)C3CC3)nc2n1	7	0
Cc1nn(C)c(=O)c(C(=O)OCCOC2CCCCC2C)c1C (stereo not given)	-3	-6
Cc1ccc(S(=O)(=O)NC(=O)C2(C)CCN2C(=O)CC2CCCCC2)nc1 (stereo not given)	5	-2
O=C(c1ccc2ncsc2c1)N(CCN1CCOCC1)c1nc2c(Cl)cccc2s1	9	8
CN(Cc1cnn(C)c1)C(=O)CS(=O)c1ccc(F)cc1F (stereo not given)	2	1
CCOc1ccc(OC)cc1NC(=O)NCc1cccc(OC)c1O	5	3
C=CCN1CCC(C(=O)NC(c2cnccn2)c2ccccc2C)CC1 (stereo not given)	-5	-8
CC(Cc1cnccn1)n1ccnc1-c1nccn1C (stereo not given)	0	7
C=CCN(C)CC[C@@H]1CC[C@H](O)[C@@H](C(=O)N(C)Cc2ccccc2)O1	-10	-17
CN(C(=O)NCc1cn2ccccc2n1)C1CCC(c2ccccc2)CC1 (stereo not given)	0	34
Nc1ccc(-c2nc[nH]c2Br)cc1	4	0
CC(CNc1nc(-c2ccncc2)nc2c1CNC2)Oc1cccnc1 (stereo not given)	3	2
CCN(CC)C(=O)C(NC(=O)c1cccc(OC)c1)C1CCN(C(=O)CCc2ccccc2)CC1 (stereo not given)	-8	4
CCS(=O)(=O)c1nc(S(=O)(=O)c2ccc(Cl)cc2)c(NC)s1	9	5
COc1ccc(OC)c(/C=C2\C(=O)N(c3ccccc3)N=C2C)c1	0	1
COCCN(Cc1ccc(OC)cc1)c1c(C)nc2ccc(C(=O)Nc3cccc(NS(C)(=O)=O)c3)cn12	-4	-8
COc1ccc(C(CC(=O)c2cccs2)Sc2ccccc2NC(C)=O)cc1 (stereo not given)	8	12
Cn1c(=NN=C(CCC#N)c2ccco2)sc2ccccc21	-1	27
Cc1ccc(NC(=O)Nc2ccc(N3CCCC3)c(C(=O)NCCc3ccccc3)c2)cc1C	8	13

Following part
Molecule	NPYLR7 ag	NPYLR7 ag max-min
C=C(C)CSc1nnc(-c2c[nH]c3ccccc23)n1C1CC1	1	-1
Cc1ccc(NCC(=O)N2CCSc3ccccc32)c(Cl)c1	1	0
Cc1cc(C)cc(-n2c(C)cc(C(=O)NC3CCN(C4CC4)CC3)c2C)c1	6	5
O=C1C=CC(=NSc2ccccc2)C=C1	14	11
Cc1cccc(NC(=O)c2c(N)c(C(=O)c3ccccc3)n3ccccc23)c1C	-4	-7
COC(=O)CC(NC(=O)c1cc(C)[nH]n1)c1cccc(Br)c1 (stereo not given)	1	1
CSc1nn(CC(=O)Nc2ccc(C)c(Cl)c2)c(N)c1S(=O)(=O)c1ccc(C)cc1	14	1
O=C(Nc1ccc(S(=O)(=O)N2CCOCC2)cc1)C1CCN(S(=O)(=O)c2cccs2)CC1	3	-1
CC(c1nccs1)N(C)c1nc2nonc2nc1N(C)C (stereo not given)	-2&3	-4&-4
CN(CC(=O)Nc1ccc(Cl)c(Cl)c1)C(=O)CCn1c(=O)oc2ccccc21	-6	-9
Cc1c(Cl)c([N+](=O)[O-])nn1CC(=O)NCC1CCCO1 (stereo not given)	-3	-5
COc1ccccc1CN(C(=O)Cc1ccc(O)c(Cl)c1)C1CC1	20	12
O=C(CCc1ccc2c(c1)OCCO2)NCCN1C(=O)SC(=Cc2ccccc2)C1=O	3	2
COc1cc(OC)c(C2=CCN(c3cncc(Cl)n3)CC2)c(OC)c1	13	9
Cc1cc(C(=O)N2CCN(c3nc4nccc(-c5cccs5)n4n3)CC2)c(C)o1	24	9
O=C(CN1C(=O)C(c2ccccc2)NC(=O)c2ccccc21)NCCn1cccc1 (stereo not given)	1	15
O=[N+]([O-])c1ccc(-c2nc(C=Nc3nncs3)c(O)o2)cc1	3	13
COc1cccc(-c2cc(C(=O)NC(C)CCc3ccccc3)nc3cc(-c4ccccc4)nn23)c1 (stereo not given)	6	14
COc1cccc(NC(=O)c2nn(C)cc2[N+](=O)[O-])c1	-2	-3
CCc1ccccc1NC(=O)c1cc2cc(OC)ccc2oc1=O	1	-6
COc1cccc(C(NC(=O)C2CCN(Cc3ccc4c(c3)OCO4)CC2)c2cnccn2)c1 (stereo not given)	11	-4
CCCCN(CC(=O)N(Cc1ccccc1)Cc1cccn1C)C(=O)c1cc(Cl)cc(Cl)c1	-4	-4
CCN1CCN(C(=O)c2cc(-c3cccc(OC)c3)nc3cc(C(C)(C)C)nn23)CC1	5	6
Cc1ccc(-c2ccc(CNc3ncn[nH]3)o2)cc1Cl	2	4
O=C(Nc1cn[nH]c1)Nc1ccccc1S(=O)(=O)N1CCCCC1	4	3
O=C(Cn1cnc2c(nnn2Cc2ccc(F)cc2)c1=O)N1CCc2ccccc21	8	9
CC1(C)CC2CC(C)(CN2C(=O)c2cc3n(n2)CCN(Cc2cccc(Cl)c2)C3=O)C1 (stereo not given)	12	8
CC1=C(C(=O)OCCc2ccccc2)C(c2ccc([N+](=O)[O-])cc2)NC(=O)N1C (stereo not given)	1	-6
Cc1cc(C(F)(F)F)c(C#N)c(SC(C)C(N)=O)n1 (stereo not given)	11	2
Cc1cc(NC(=O)c2ccccc2)n(-c2ncnc3c2cnn3-c2ccccc2)n1	4	3
CCCCOc1ccc(-c2cc(C(=O)N/N=C\c3cccnc3)[nH]n2)cc1	4	5
CC(Oc1ccc(Cl)cc1Cl)c1nc(-c2ccncc2)no1 (stereo not given)	-2	-4
CCc1c(C(=O)N2CCC3(CC2)CNC(=O)C3)[nH]c2ccccc12	3	2
Cc1ccc(CN2C(=O)c3ccccc3NC2c2cccc(O)c2O)cc1 (stereo not given)	18	10
Cc1ccc(S(=O)(=O)N2CCN(C(=O)c3cc(-c4ccc(Cl)cc4)on3)CC2)c(C)c1	13	15
Cc1ccsc1C(=O)NC(C(=O)O)c1c(C)n[nH]c1C (stereo not given)	7	-4
CCCc1noc(-c2cccc([N+](=O)[O-])c2)n1	-8	-12
O=C(O)c1cc(S(=O)(=O)Nc2cccc(-n3cccc3)c2)ccc1F	1	4
Cc1ccc(C(=O)Nc2ncn[nH]2)cc1C	-3	-4
CS(=O)(=O)c1cccc(-c2nnc(NC(=O)c3cccc(C(F)(F)F)c3)o2)c1	-2	-4
COCCCNC(=O)CN1C(=O)CSC(c2ccccc2C)c2c(-c3ccccc3)nn(-c3ccc(OC)cc3)c21 (stereo not given)	30	27
CC(C)CN(CC(=O)Nc1nc(CC(=O)O)cs1)C(=O)c1ccc(F)cc1	-4	-12
Cc1ccc2oc(CN3CCN(c4cc(N)nc(N)n4)CC3)c(C)c2c1	21	13
Cc1nn(C)c(C)c1CCC(=O)N(C)Cc1cc(C(C)(C)C)n[nH]1	1	-3
Cc1cc(=O)n(CC(=O)N2[C@@H]3CC[C@H]2CN(C)C(=O)C3)c2ccccc12	-3	-5
N#CC1C(=N)Oc2cc(N)ccc2C1c1ccc(Br)cc1 (stereo not given)	40	40
c1nc(NCC2CNCCOC2)c2ccsc2n1 (stereo not given)	-5	-10
CC(C)(C)N(CC#CCC1(O)c2ccccc2-c2ccccc21)CCO	3	0
Cc1ccc2nc(COC(=O)C=Cc3cccs3)cc(=O)n2c1	2	-6
Cc1c(C(=O)NCc2ccccc2)sc(=O)n1Cc1ccc(S(=O)(=O)N(C)C)cc1	8	1
OC(COCc1ccccc1)CN(Cc1ccc2c(c1)OCO2)Cc1cccs1 (stereo not given)	7	17
O=S(=O)(c1c(Cl)cccc1Cl)N1CCN(Cc2nc3ccccc3s2)CC1	13	29
Cc1ccc(N2C(=O)CC(NCCc3ccccn3)C2=O)cc1 (stereo not given)	-3	-11
CC(C)c1cc(Oc2cccc(F)c2)nc(SCc2cccc(C(F)(F)F)c2)n1	25	18
COC(C(=O)Nc1ccnn1C1CCN(C(=O)c2cc(C(C)C)no2)CC1)c1ccccc1 (stereo not given)	-5	-5
C=CCn1c(SCC(=O)c2ccc(CCNC(C)=O)cc2)nc2ccccc2c1=O	-4	-6
C=CCN(Cc1nccn1Cc1ccc(Cl)cc1Cl)C(=O)NC(C)C	9	20

The list is partial, so the mix of outcomes need not match the whole.
